# Screens: PubChem, Broad Institute
# MITF inhib: inhibitors of MITF; TRPM1 promoter luciferase, luminescence, 24 h; inhibition, % (no concentration beside the values); actives 0.28% (n = 37,000); AID 2240;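 active = most replicates at 85% or more, or half of them and the mean; inconclusive = half reach 85% but not the mean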;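 also: human melanocyte line stably carrying TRPM1 promoter luciferase reporter; 0% = vehicle wells and 100% = a positive control; the first replicate is given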
# YB-1 expression: YB-1 expression inhibition; AID 434959; U2OS, qRT-PCR YB-1 vs CDIP delta delta Cp, 16 h; active compounds read high; zero = DMSO, each unit about twofold; actives 0.37% (n = 30,000); delta delta Cp (YB-1 minus CDIP) (no concentration beside the values);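 active = delta delta Cp rounded down to an integer at or above 3, about 3 SD of DMSO wells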;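 also: higher means less YB-1 transcript or more CDIP transcript relative to DMSO; stock transfer was 100 nL into about 100 µL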
# Shh pathway inh: Sonic Hedgehog pathway inhibition | Shh-LIGHT2 Gli-luciferase reporter, 30 h | inhibition, % (no concentration beside the values) | actives 2.1% (n = 22,000) | AID 2313;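 active = replicate mean of 65% or more; inconclusive = mean lower but half the replicates past it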;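 also: pathway switched on by Shh-conditioned medium diluted 1 in 25 in low serum; 100 nL library stock added to about 40 µL; 0% = median of neutral wells and 100% = positive control level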
# PD-1 reversal: reversal of PD-1 mediated T-cell inhibition; primary human CD4 T cells, PD-L1 beads, CellTiter-Glo 96 h; 29,000 tested, under 10 active; activation, % (test concentration not listed);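 active = replicate mean of 50% or more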;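 also: 0% = median vehicle wells and 100% = positive control; 100 nL library stock added to about 50 µL; numbers are from one replicate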
# An asterisk follows results filed as active; ? = inconclusive; . = not tested or not shown; & = joins results of further samples. Some of the compounds tested (hit frequency here may not be typical).
SMILES,MITF inhib,YB-1 expression,Shh pathway inh,PD-1 reversal
COC(=O)[C@@]12C(=O)C(C)C(=O)[C@]1(C)C(C)=C[C@H]1[C@]3(C)CC[C@H](OC(C)=O)C(C)(C)[C@H]3CC[C@@]12C (some centres undefined),-15,0.0092,-10,2.7
Cc1cc(C(F)F)n2nc(C(=O)Nc3ccc4c(C(F)(F)F)cc(=O)oc4c3)nc2n1,-17,.,.,-0.9
CC12CC[C@H]3C(CCC4(O)CC(O)CCC34O)C1(O)CCC2C1=CC(=O)OC1 (some centres undefined),-14,-0.15,-45,-1.5
CCCCc1ccc(C(=O)O)nc1,-19,0.047,-8,.
CCCCOC(=O)c1ccccc1C(=O)OCCCC,-21,0.48,-68,.
CCOC(=O)C1=NN(c2ccc(C)cc2)C2c3cccc4cccc(c34)C12 (centres undefined),-62,-0.18,.,-0.3
O=C1c2ccccc2-c2cccc3cccc1c23,-99,-0.087,-22,.
c1ccc2c(c1)OCC(C1=NCCN1)O2 (centres undefined),7,0.56,-5,-1.8
N#Cc1nn(-c2c(Cl)cc(C(F)(F)F)cc2Cl)c(N)c1S(=O)C(F)(F)F (centres undefined),51,0.18,31,.
CCOC(=O)c1c(C)n(Cc2ccccc2)c2ccc(OCC(O)CNC(C)(C)C)cc12 (centres undefined),58,0.4,61,-6.7
CCn1cnc2c(Nc3cccc(Cl)c3)nc(N[C@@H]3CCCC[C@@H]3N)nc21,51,-0.6,73*,2.7
COc1ccc(CC2c3cc(OC)c(OC)cc3CCN2C)cc1OC (centres undefined),-15,-0.034,-55,1.8
CCN1C[C@@]2(COC)C3[C@@H](OC)[C@H]4[C@@H]1[C@@]3(C1C[C@]3(O)[C@H](OC(=O)c5ccccc5)C1[C@]4(OC(C)=O)[C@@H](O)[C@H]3OC)[C@@H](OC)C[C@H]2O (some centres undefined),-1,0.21,48,1.4
C=CCN1CC[C@]23c4c5ccc(O)c4OC2C(=O)CC[C@@]3(O)[C@H]1C5 (some centres undefined),-12,0.23,37,.
FC(F)(F)c1ccc2c(c1)N(CCCN1CCN(CCCl)CC1)c1ccccc1S2,18,-16,66*,-7.6
C=C1[C@@H](C)[C@H]2[C@H](Cc3ccccc3)NC(=O)[C@]23OC(=O)/C=C\[C@H](O)CCC[C@@H](C)C/C=C/[C@H]3[C@@H]1O,21,0.46,65*,-13
C[C@@H]1O[C@@H](OC2CCC3(C)C4CCC5(C)C(C6=CC(=O)OC6)CCC5(O)C4CC[C@H]3C2)[C@H](O)[C@H](O)[C@H]1O (some centres undefined),2,2.1,18,-16
C=C(C)Cc1c(C)nc(SCC(=O)c2ccc(Cl)cc2)nc1OC(=O)N(C)C,-4,-0.16,.,0.4
CC(C)[C@@]1(NC(=O)[C@@H]2C[C@@H]3c4cccc5[nH]cc(c45)C[C@H]3N(C)C2)O[C@@]2(O)[C@@H]3CCCN3C(=O)[C@H](Cc3ccccc3)N2C1=O,-5,0.23,-9,0.3
Cc1ccccc1NC1=NCC(C)(C)S1,-22,-0.25,23,0.9
N#Cc1c(Cl)cccc1Cl,-29,-0.028,-15,.
C[C@@H]1O[C@@H](O[C@@H]2C=C3CCC4C(CC[C@]5(C)[C@@H](c6ccc(=O)oc6)CC[C@]45O)[C@@]3(C)CC2)[C@H](O)[C@H](O)[C@H]1O (some centres undefined),42,-1.4,-21,.
CCC1(c2cccc(O)c2)CCCCN(C)C1 (centres undefined),6,0.19,15,.
NC(=O)CS(=O)C(c1ccccc1)c1ccccc1 (centres undefined),5,0.088,-45,.
CC(C)(O)c1cc(O)c2c(c1)CCC1C(C)(C(=O)O)CCCC21C (centres undefined),6,0.16,-21,0.1

# An excerpt from above, showing only PD-1 reversal and MITF inhib:
canonical_smiles	PD-1 reversal	MITF inhib
C=C1[C@@H](C)[C@H]2[C@H](Cc3ccccc3)NC(=O)[C@]23OC(=O)/C=C\[C@H](O)CCC[C@@H](C)C/C=C/[C@H]3[C@@H]1O	-13	21
C[C@@H]1O[C@@H](OC2CCC3(C)C4CCC5(C)C(C6=CC(=O)OC6)CCC5(O)C4CC[C@H]3C2)[C@H](O)[C@H](O)[C@H]1O (some centres undefined)	-16	2
C=C(C)Cc1c(C)nc(SCC(=O)c2ccc(Cl)cc2)nc1OC(=O)N(C)C	0.4	-4
CC(C)[C@@]1(NC(=O)[C@@H]2C[C@@H]3c4cccc5[nH]cc(c45)C[C@H]3N(C)C2)O[C@@]2(O)[C@@H]3CCCN3C(=O)[C@H](Cc3ccccc3)N2C1=O	0.3	-5

# Later entries.
SMILES,MITF inhib,YB-1 expression,Shh pathway inh,PD-1 reversal
CN1CCc2nc3sc(C(=O)C(C)(C)C)c(N)c3cc2C1,41,0.048,?,-0.8
CC1=CC2/C=C(\C)CCC(O)C(O)/C=C/C(=O)C23C(=O)NC(CC(C)C)C3C1C (centres undefined),89*,1.1,71*,-37
C[C@]12CC[C@H](O)C[C@H]1CCC1C2CC[C@]2(C)[C@@H](C3=CC(=O)OC3)[C@@H](O)C[C@]12O (some centres undefined),-9,0.42,-47,.
COc1ccc2c(c1)[C@]13CCCC[C@@H]1[C@H](C2)N(C)CC3,-2,0.081,35,.
COc1nc(NC(C)C)nc(NC(C)C)n1,4,0.23,-6,.
COC(=O)C1C2c3ccccc3C(c3ccccc32)C1C(=O)OC (centres undefined),-26,-0.19,-25,0.0
Cn1c(=O)c2c(ncn2CCCl)n(C)c1=O,1,-0.026,-3,.
CO[C@H]1C[C@H](OC2CCC3(C)C4CCC5(C)C(C6=CC(=O)OC6)CC(OC(C)=O)C5(O)C4CC[C@H]3C2)O[C@@H](C)[C@@H]1O (some centres undefined),10,-0.083,-3,-16
CCCCC/C=C\C/C=C\C/C=C\C/C=C\CCCC(=O)NCC(=O)O,16,0.19,13,5.4
C[C@@H]1CN(C2CCC(C#N)(c3ccc(F)cc3)CC2)CC[C@]1(C(=O)O)c1ccccc1 (some centres undefined),9,0.018,-9,.
CCOC(=O)c1cc(C(C)(C)C)nc(OC(=O)N(C)C)c1C#N,0,0.11,27,-0.6
CCOC(=O)c1c(NC(=O)C2C(C)(C)C2(C)C)sc2c1CCC2,10,0.13,-3,-12
CCOc1cc(CN2CCN(C(=O)COc3ccc(C)cc3)CC2)ccc1OC,-4,-0.04,8,0.9
N#CC(C#N)=NNc1ccc(OC(F)(F)F)cc1,67,0.85,82*,-50
c1cncc(C2Nc3ccccc3-n3cccc32)c1 (centres undefined),-31,-0.3,-41,-6.2
O=c1c2ccccc2nc(CSc2ncnc3nc[nH]c23)n1-c1ccccc1Cl,-5,.,.,0.1
C/C=C1/CN2C3Cc4c([nH]c5ccc(O)cc45)C2(O)CC1C3CO (centres undefined),1,0.62,12,1.2
O=C1C=C2C=C[C@@H]3C[C@@]2(O1)[C@H]1CCCCN31,25,-0.0014,72*,.
N[C@H]1C[C@@H]1c1ccccc1,-13,-0.11,?,-0.4
CN1Cc2c(ccc3c2OCO3)[C@@H]2[C@H]1c1cc3c(cc1C[C@@H]2O)OCO3,23,0.49,-8,0.4
O=C1C=C2C=C[C@@H]3CC2(O1)[C@H]1CCCCN31,8,-0.15,51,-6.2
O=C1NCN(c2ccccc2)C12CCN(CC1COc3ccccc3O1)CC2 (centres undefined),-16,0.42,-14,.
COc1c2c(cc3c1OCO3)CCN(C)C2,19&6,-0.083&0.11,-6&-16,2.3
C=CC/C=C\C/C=C\CCCCCCCc1cc(O)cc(O)c1,6,-0.34,28,1.4
NCC(=O)c1ccccc1,3,0.19,-25,.

# Reprinted from the part before: 4 entries, then new ones.
SMILES,MITF inhib,YB-1 expression,Shh pathway inh,PD-1 reversal
O=C1NCN(c2ccccc2)C12CCN(CC1COc3ccccc3O1)CC2 (centres undefined),-16,0.42,-14,.
COc1c2c(cc3c1OCO3)CCN(C)C2,19&6,-0.083&0.11,-6&-16,2.3
C=CC/C=C\C/C=C\CCCCCCCc1cc(O)cc(O)c1,6,-0.34,28,1.4
NCC(=O)c1ccccc1,3,0.19,-25,.
CCCC(=O)O[C@@H]1[C@@H](C)[C@@]2(O)[C@@H](C=C(CO)C[C@]3(O)C(=O)C(C)=C[C@@H]23)[C@@H]2C(C)(C)[C@]12OC(=O)CCC,2,0.5,70*,9.9
CCN(CC)P1(=O)OC(C)(C)CC1(C)O (centres undefined),-11,-0.13,-18,0.5
COc1cc2c(cc1O)C[C@H]1c3c(cc(O)c(OC)c3-2)CCN1C,13,0.35,-31,.
C[C@]12CC[C@H](O)C[C@H]1CC[C@@H]1[C@@H]2C[C@@H](O)[C@]2(C)[C@@H](C3=CC(=O)OC3)CC[C@]12O,18,0.31,-47,-18
C=C1[C@@H](C)[C@H]2[C@H](Cc3ccccc3)NC(=O)[C@]23[C@H](OC(C)=O)C=C[C@](C)(O)C(=O)[C@@H](C)C/C=C/[C@H]3[C@@H]1O,57,-0.099,73*,.
Cn1c2c(c3ccccc31)CCNCC2,0,-0.37,14,.
O=c1ccc2c(O)c3ccoc3cc2o1,11,0.11,15,.
COc1cc2c(cc1OC)C(C)NCC2 (centres undefined),7&1,0.1&0.25,36&-41,3.6
CCN(CC)C(=O)N[C@@H]1C[C@@H]2c3cccc4[nH]cc(c34)C[C@H]2N(C)C1,-15,-0.039,-33,.
COc1cc2c(cc1OC)C13CCN(C)CC4=CCOC5CC(=O)N2C1C5C4CC3=O (centres undefined),4,0.57,20,0.5
c1cncc(C2=NCCC2)c1,-1,-0.34,-74,0.3
CN1CC[C@@H]2CN3CCc4cccc(c43)[C@@H]2C1,-8,0.44,?,.
N#CC(C#N)=Cc1cc(O)c(O)c(O)c1,-10,-0.049,42,0.2
C=C(C)[C@@H]1C2C(=O)O[C@H]1[C@H]1OC(=O)[C@@]34OC3C[C@]2(O)[C@@]14C (some centres undefined),-10,-0.022,-8,-0.7
C[C@]12CC[C@H]3[C@@H](CC[C@]4(O)C[C@@H](O)CC[C@]34C=O)[C@@]1(O)CC[C@@H]2C1=CC(=O)OC1,32,0.38,-40,.
C[C@H]1CC[C@@H]2[C@@H](C)[C@H]3[C@H](C[C@H]4[C@@H]5CC=C6CC(O[C@@H]7O[C@H](CO)[C@@H](O)[C@H](O[C@@H]8O[C@H](CO)[C@@H](O)[C@H](O)[C@H]8O)[C@@H]7O[C@@H]7O[C@@H](C)[C@H](O)[C@@H](O)[C@H]7O)CC[C@]6(C)[C@H]5CC[C@]34C)N2C1 (some centres undefined),52,-0.8,25,-4.7
Oc1ccc(C2(c3ccc(O)cc3)CCCCC2)cc1,11,0.027,-22,-0.4
CC1OC(n2cnc3c(N)ncnc32)C[C@H]1O (some centres undefined),-10,0.2,20,3.9
CCCCC/C=C\C/C=C\C/C=C\C/C=C\CCCC(=O)NCCO,5,-0.023,-21,.
c1ccc2c(CNCCc3c[nH]c4ccccc34)cccc2c1,-6,-0.29,56,-5.4
CCCCCc1cc(O)c2c(c1)OC(C)(C)[C@@H]1CCC(C(=O)O)=CC21 (some centres undefined),19,-0.37,24,9.3
COc1ccc(CNCc2nc3ccccc3c(=O)n2-c2ccc(F)cc2)cc1,8,.,.,0.4

# Two of the compounds above, with bars between the fields:
compound | MITF inhib | YB-1 expression | Shh pathway inh | PD-1 reversal
C=C(C)[C@@H]1C2C(=O)O[C@H]1[C@H]1OC(=O)[C@@]34OC3C[C@]2(O)[C@@]14C (some centres undefined) | -10 | -0.022 | -8 | -0.7
C[C@]12CC[C@H]3[C@@H](CC[C@]4(O)C[C@@H](O)CC[C@]34C=O)[C@@]1(O)CC[C@@H]2C1=CC(=O)OC1 | 32 | 0.38 | -40 | .
